Screens deposited in PubChem by National Center for Advancing Translational Sciences (NCATS).
Menin MLL FP FL = inhibitors of human menin-MLL interaction, wild-type MLL peptide; Fluorescence polarization, fluorescein-MLL peptide displacement from menin; FP activity change, % at 61.4 µM; 290,000 tested, under 10 active; AID 1766; inconclusive = falling polarisation curve, or a change in total fluorescence; inactive = total fluorescence flat and polarisation flat or rising; no compound was filed as active; the % refers to the polarisation; negative = inhibition;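 note: % of control where 0% means no effect; inhibitors lower the polarisation; unlabelled MLL peptide was the positive control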
Sfp inh = blocks B. subtilis Sfp PPTase activity. Q9F4F7. Biochemical Sfp PPTase activity, qHTS. Potency, µM, inactives show max response, negative = inhibition, actives largely listed as inhibitors. 3.5% of 310,000 active; active = well fitted inhibition curve with a large enough effect; inconclusive = small, poorly fitted or top-dose-only effect, or another doubt; inactive = no such curve, though single readings can be large or run the other way;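 note: the enzyme is Sfp with the accession as filed and its product quenches rhodamine fluorescence; potency is the fitted concentration of half-maximal effect; 0% = enzyme reaction without inhibitor and -100% = no enzyme wells; top concentration of the series not given in the record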
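Sfp 15 nM + cpd, 15 min RT; start w/ rhodamine-CoA 5 uM, BHQ-2-YbbR 12.5 uM (final); 50 mM Hepes pH 7.6, 10 mM MgCl2, 0.01% NP-40, 0.01% BSA; read 525/598 nm at 0 and 30 min.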
ClpP mod = qHTS Assay for Activators of ClpP; Potency, µM (series often up to 57.5 µM), for inactives: at the top dose activity change, negative = active; ATP-dependent Clp protease proteolytic subunit (Bacillus subtilis (strain 168)), P80244; purified B. subtilis ClpP, FRET peptide cleavage, 20 min; 1.9% of 340,000 active; AID 651965, 2013; active = well fitted falling curve with a large enough effect; inconclusive = small, poorly fitted or top-dose-only effect; inactive = no such curve, though single readings can be large or run the other way; note: potency is the fitted concentration of half-maximal effect; the source files actives as falling curves though it sought activators and does not explain the sign; nearly all actives have a fitted effect of over 65% in size; many hits overshoot -100%
Target sequence (P80244 whole entry, looked up): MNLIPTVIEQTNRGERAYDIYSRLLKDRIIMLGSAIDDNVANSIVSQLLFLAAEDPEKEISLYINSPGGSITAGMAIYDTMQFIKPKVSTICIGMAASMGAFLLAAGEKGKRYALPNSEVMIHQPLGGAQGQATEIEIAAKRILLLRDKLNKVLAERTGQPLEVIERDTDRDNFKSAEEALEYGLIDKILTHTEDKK
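ClpP 10 microg/mL final, pH 8 Tris/KCl buffer with BSA, glycerol, Tween-20; compound pinned in; FRET-FV substrate; RT 20 min; Ex320/Em430; ΔFRET vs ADEP 5.8 microM, DMSO, no enzyme.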
PINK1 modulator = changes PINK1 expression | AID 624263 | Potency, µM (doses to about 76.6 µM), for inactives: at the top dose activation (PINK1 increase), hits mostly activators | PINK1 immunofluorescence, high-content cytometry, 24 h | 0.2% of 410,000 active; active = well fitted activation curve with a large enough effect; inconclusive = small, poorly fitted or top-dose-only effect; inactive = flat fitted curve, though single readings scatter; cell line not stated here;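 note: potency is the fitted concentration of half-maximal effect; % of control where 0% means no effect; nearly all actives have a fitted effect of over 65% in size; a mitochondrial uncoupler was the plate control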
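PINK1 protein level read as immunofluorescence by microplate cytometer in a fixed, stained stable cell line after 24 h exposure to five compound concentrations, with CCCP as control.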
gsp antagonist = antagonizes gsp, the McCune-Albright syndrome mutation; Potency, µM (titrated, usually from 76.9 µM), without a hit: at the highest dose activity change, negative = inhibition, actives largely listed as inhibitors; gsp-mutant cells, cAMP HTRF, 30 min; control for the full effect not named in the record; 0.4% of 340,000 active; active = falling curve of any shape with a large fitted effect; inconclusive = falling curve, mostly with a smaller effect; inactive = flat or rising curve; cell line not stated here;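 note: intracellular cAMP measured with PDE inhibitor Ro 20-1724 present during compound exposure; potency is the fitted concentration of half-maximal effect; % is set by controls: 0 for no effect and ±100 for the full control effect; nearly all actives have a fitted effect of over 65% in size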
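Cells, 2000/well, grown 16–24 h in DMEM 10% FBS with 0.5 mg/ml G418, then compounds plus […] (300 uM addition stock), 30 min at 37C. cAMP read by HTRF (cAMP-d2 and anti-cAMP antibody-K in lysis buffer) after 30 min RT.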
gsp agonist = activates gsp, the McCune-Albright syndrome mutation. gsp mutant cells, cAMP HTRF, 30 min; control for the full effect not named in the record. Potency, µM (series often up to 76.9 µM), for the others: at the top dose activation (cAMP increase), usual class: activators. AID 624287. 0.13% of 340,000 active; active = well fitted activation curve with a large enough effect; inconclusive = small, poorly fitted or top-dose-only effect, or another doubt; inactive = no such curve, though single readings can be large or run the other way; cell line not stated here;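 note: phosphodiesterase inhibitor Ro 20-1724 added with compounds to block cAMP breakdown; potency is the fitted concentration of half-maximal effect; nearly all actives have a fitted effect of over 60% in size; about a fifth of the inactives were tested at one dose only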
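Cells in DMEM/10% FBS with G418 were pretreated with compounds in DMSO plus […] (300 uM stock) for 30 min at 37C. cAMP was measured by HTRF (cAMP-d2 plus anti-cAMP antibody-K) after 30 min at room temperature.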
D2 ag = human D2 receptor agonism in beta-arrestin assay; DiscoveRx PathHunter D2 beta-arrestin, luminescence, 90 min; 100% = 57 uM dopamine signal; activation, % (concentration not given with the values); 0.084% of 360,000 active; in the data active = activation above about 40%; inconclusive = about 15% to 40%; inactive = below about 15%; note: compound concentration not given in the record; the text of the record calls up to 30% inactive
Target sequence (P14416 whole entry, looked up): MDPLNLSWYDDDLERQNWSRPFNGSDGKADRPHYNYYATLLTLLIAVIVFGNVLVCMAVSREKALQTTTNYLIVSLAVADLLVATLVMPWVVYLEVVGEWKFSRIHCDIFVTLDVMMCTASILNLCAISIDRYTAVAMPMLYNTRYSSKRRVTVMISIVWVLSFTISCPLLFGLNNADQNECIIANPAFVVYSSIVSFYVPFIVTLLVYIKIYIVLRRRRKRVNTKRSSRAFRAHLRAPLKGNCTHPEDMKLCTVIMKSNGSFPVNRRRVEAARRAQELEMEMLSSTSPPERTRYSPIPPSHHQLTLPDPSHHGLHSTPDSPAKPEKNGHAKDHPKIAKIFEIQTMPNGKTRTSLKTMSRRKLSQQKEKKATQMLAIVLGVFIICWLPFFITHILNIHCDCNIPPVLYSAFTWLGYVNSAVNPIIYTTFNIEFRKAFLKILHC
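Agonist mode: compounds alone added to overnight-plated D2 PathHunter cells for 90 min at 37 C, with 57 uM final dopamine (EC100) defining full response. Beta-arrestin recruitment detected by chemiluminescent reagent, read after 1 h at ambient temperature.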
The depositor's hits bear a star; ? = inconclusive; / = no result given; [ ] = remark or other dose.

SMILES | Menin MLL FP FL | Sfp inh | ClpP mod | PINK1 modulator | gsp antagonist | gsp agonist | D2 ag
Cc1ccsc1C(=O)N1CCCC(C(=O)c2cc(F)ccc2F)C1 (configuration not stated) | -1.5 | 8.5% | 1.3% | -0.5% | -2.7% | -29.1% | 0.1
Cc1cc(NC(=O)c2cc3ccccc3o2)ccc1NC(=O)c1ccccc1 | 0.9 | 9.4% | / | 2.0% | ? | -77.9%[inhibitor] | 14.2
COc1ccccc1C(=O)NCCc1nc2ccccc2[nH]1 | 7.8 | 10.0% | 1.4% | -0.1% | 4.7% | 1.1% | -0.9
COc1ccc(CCNCC(O)COc2c(C)cccc2C)cc1OC (configuration not stated) | 3.4 | -13.4% | / | -2.7% | 9.6% | 13.0%[15.4 µM] | 1.9
CCOC(=O)C1=CC[C@H]2c3c(c4ccc(OC)cc4n3C)C(=O)C1N2S(=O)(=O)c1ccc(C)cc1 | / | / | -16.9% | 7.1% | -0.2% | 16.5% | -3.6
Cc1cc(C)cc(SCc2noc(C(=O)NCC3CCCO3)c2C(=O)O)c1 (configuration not stated) | -0.5 | 20.9% | 1.6% | 0.4% | -0.6% | 4.8% | 0.2
COc1cc(NC(=O)Nc2ccc3c(c2)OCO3)cc(OC)c1OC | -0.1 | 7.1% | / | 3.1% | 6.5% | 14.7%[15.4 µM] | -6.1
COc1ccc(C2C(C(=O)c3cccs3)=C(O)C(=O)N2c2nnc(C)s2)cc1OC (configuration not stated) | ? | 56.2µM* | -1.7% | -0.2%[38.3 µM] | -4.3% | 3.6% | 0.5
O=C(NCCc1ccccc1Cl)C1CC(=O)N(C2CCCCC2)C1 (configuration not stated) | 6.3 | 15.9% | / | -0.5% | 11.9% | 8.2%[15.4 µM] | 0.4
COc1ccc(Cl)cc1NC(=O)COC(=O)CNC(=O)C1CCCCC1 | / | / | -0.8% | -0.3% | 0.7% | -39.1%[inhibitor] | -3.0
O=C(CC(C(=O)O)c1ccccc1)Nc1cccc2ccccc12 (configuration not stated) | 1.9 | -1.9% | 1.4% | -0.8% | 8.8% | -21.4% | -3.3
Cc1nnc(SCC(=O)N2CCOCC2)c2ccccc12 | -1.5 | -5.2% | 1.5% | -0.5% | 14.0% | 26.6% | -2.6
CCCCOc1ccc(/C=C/C(=O)N(CC)CC(=O)Nc2ccc3c(c2)OCCO3)cc1OC | / | / | ? | 6.1% | -10.4% | 7.0% | -1.3
Cc1cccc(C(c2c(C)nn(-c3ccccc3)c2N)c2c(C)nn(-c3ccccc3)c2N)c1 | 5.5 | -2.1% | 4.1% | 2.9% | -5.0% | 12.4% | -3.0
Cc1noc(C)c1NC(=O)N(C)C[C@@H]1Oc2ncc(C#CC3CC3)cc2C(=O)N([C@@H](C)CO)C[C@@H]1C | / | / | -0.5% | 1.4% | / | 10.6% | -1.5
CC(/C=N/n1c(-c2ccco2)n[nH]c1=S)=C\c1ccco1 | ? | 44.7µM* | -3.4% | -0.2% | -14.8% | 9.3% | -0.9
COc1ccc(NC2CCCN(C(=O)c3ccccc3-c3ncc[nH]3)C2)cc1 (configuration not stated) | / | / | 0.5% | 1.5% | / | 2.8% | -0.9
Cc1cc(C)nc(NC(C)(C)C(=O)O)n1 | -4.5 | 0.3% | 1.4% | -1.1% | 9.7% | -39.7%[inhibitor] | 2.0
CN(C)c1cccc(C(=O)NNC(=O)CSc2ccccc2)c1 | 7.8 | 8.7% | / | 4.3% | 4.6% | 25.9% | -0.4
CCOC(=O)C1=CCN(S(=O)(=O)c2ccc(C)cc2)C1c1ccccc1F (configuration not stated) | / | / | -1.8% | 0.6% | / | / | -2.1
O=C(CC(c1ccccc1)c1ccccc1)NCCO | 0.9 | 10.1% | -11.1% | 0.3% | 6.1% | -34.4%[inhibitor] | -2.9
COc1cc(C2CC(=O)Nc3ccccc3S2)cc(OC)c1OC (configuration not stated) | 6.5 | 4.8% | -0.2% | -2.6% | 14.1% | -1.7% | 3.2
Fc1ccc(COc2ccccc2-c2ccnc3ncnn23)cc1 | -0.2 | 20.2% | 4.2% | 0.9% | -8.4% | -28.1% | -3.0
CC(C)Cn1c(CCCNC(=O)c2ccco2)nc2ccccc21 | / | 6.3% | 0.0% | 0.7% | 18.1% | ? | -2.2
C=CCOc1ccccc1/C=N/n1nnnc1N | 1.7 | 14.6% | -13.3% | -1.8% | -7.0% | 14.3%[15.4 µM] | -1.5
CC(=O)Nc1ccc(-c2ccnc3c2CC(C)(C(=O)Nc2ccc(Cl)cc2)O3)cc1 (configuration not stated) | / | / | 4.5% | -0.2% | / | / | 1.7
O=C(Nc1ccc(-c2noc(COc3ccccc3Cl)n2)cc1)c1ccco1 | -0.6 | -7.8% | 3.9% | 11.9% | -9.5% | 6.9% | 1.6
C/C(CC(=O)Nc1cc(Cl)ccc1Cl)=N\NC(=O)c1ccccc1Br | 0.4 | 19.1% | -1.5% | 3.2% | -17.0% | -34.0%[inhibitor] | -0.8
COc1ccc(C(=O)Nc2c3c(nn2-c2ccc([N+](=O)[O-])cc2)CS(=O)(=O)C3)cc1 | -1.7 | 22.6% | -1.3% | 1.0% | -12.5% | -2.6% | -0.6
O=C(CSc1ccc2c(c1)OCCO2)Nc1cccc(S(=O)(=O)N2CCCCC2)c1 | 6.8 | 3.4% | -0.4% | -1.6% | 6.1% | -13.3% | -1.0
O=C1CCCC2=C1C(c1cccs1)n1nc(SCc3ccccc3)nc1N2 (configuration not stated) | -0.8 | -4.8% | ? | 0.3%[38.3 µM] | 3.2% | ? | -3.6
Cn1cccc1C(=O)N1CCC2(CC1)CCN(c1ncccn1)CC2 | 4.1 | 7.7% | / | -0.6% | / | / | /
Cc1nnc2sc(SCC(=O)Nc3nccs3)nn2c1=O | 2.0 | -14.7% | -0.6% | 4.5% | -14.2% | 1.0% | -2.5
Cc1cc(OCCCN2CCN(Cc3ccccc3)CC2)ccc1[N+](=O)[O-] | -3.6 | ? | 2.8% | 0.5% | -3.2% | 2.4% | -1.0
O=C(Nc1ccccc1C(=O)NCC1CCCO1)c1ccccc1F (configuration not stated) | / | 18.2% | -0.7% | -1.1% | 5.2% | ? | 3.1
CC(=O)CSc1ccc(-c2nc3cc(C)c(C)cc3[nH]2)cn1 | -0.3 | 21.1% | / | -1.8% | / | -3.5%[15.4 µM] | 0.7
CC(=O)c1ccc(S(=O)(=O)NCCc2cn3ccc(C)cc3n2)cc1 | / | / | -0.7% | -0.9% | -18.1% | -22.4% | -2.0
C/C=C(/C)C(=O)Nc1cccc(C2=NOC3(C2)C[C@H](C(N)=O)N(C(=O)Cc2ccc([N+](=O)[O-])cc2)C3)c1 (some centres not stated) | 2.6 | 9.7% | 0.6% | 1.0% | 0.5% | / | -2.8
C/C(CC(=O)N1CCN(C=O)CC1)=N\NC(=O)c1ccc(Cl)cc1 | -0.3 | -7.9% | / | 1.6% | 8.5% | -7.3%[15.4 µM] | -1.9
COc1cccc(NC(=O)CSc2nc3ccccc3c(=O)n2CCCC(=O)NCC2CCCO2)c1 (configuration not stated) | / | -4.4% | -0.8% | 10.0% | ? | 20.7% | -2.5
O=C(O)CSCC(=O)N(c1ccccc1)c1ccccc1 | -2.8 | 18.1% | ? | -0.3% | 3.8% | 5.0%[15.4 µM] | -5.6
Cc1ccc(OCC(=O)Nc2ccc3c(c2)CCC3)c([N+](=O)[O-])n1 | -5.4 | -8.9% | -5.1% | 1.2% | -5.9% | -4.1%[15.4 µM] | -1.4
Cn1ncc(Br)c1C(=O)N1CCN(C(=O)c2ccco2)CC1 | -0.3 | 11.2% | -21.9% | 0.4% | 18.7% | 19.1% | 0.0
O=C(OCCCc1cc2ccccc2c(=O)o1)c1ccc(C(F)(F)F)cc1 | / | / | -8.6% | -0.2% | 1.0% | 16.7% | -0.5
Cc1ccc(NC(=O)CSc2nnc(-c3cc(C)[nH]n3)n2N)c(C)c1 | / | 2.9% | -4.1% | -0.4% | -10.5% | -42.6%[inhibitor] | 6.6
COc1ccc(-c2csc(NC(=O)CN3C(=O)C4CCCCC4C3=O)n2)c(OC)c1 (configuration not stated) | / | / | -1.4% | -2.1% | -13.5% | -1.2%[15.4 µM] | -3.5
CCn1ccnc1CN1CCC(n2nccc2NC(=O)CCc2ccccc2)CC1 | / | 8.6% | -6.7% | -0.3% | 5.1% | -9.4% | -4.4
O=[N+]([O-])c1ccc(-c2cn(-c3ccccc3F)c(=S)[nH]2)cc1 | -9.1 | ? | / | 4.7% | 4.0% | ? | 6.8
O=C(CN1C(=O)COc2ccccc21)N1CCN(C2CCCCC2)CC1 | 0.6 | 16.7% | / | 1.1% | 4.8% | 10.7%[15.4 µM] | -4.1
CC(=O)NC1=NC(=O)/C(=C/N2CCOCC2)S1 | 10.3 | 15.0% | -5.3% | 1.2% | 10.6% | ? | -1.1
Cc1ccc(S(=O)(=O)N/N=C\c2cc3c(cc2[N+](=O)[O-])OCO3)cc1 | -1.0 | -17.6% | -4.0% | -2.6%[38.3 µM] | -5.5% | ? | 6.9
CCOC(=O)[C@H]1[C@H]2COc3ccc(OC)cc3[C@@H]2N2C(=O)c3cc(F)c(F)cc3NC(=O)[C@@]12C | / | / | -2.2% | 1.1% | -3.4% | 32.1% | -2.0
O=C(CSc1ccc2nnc(-c3ccccc3)n2n1)N1CCCc2ccccc21 | 8.6 | 8.91µM* | 1.3% | 5.4% | 0.6% | -41.7%[inhibitor] | -2.2
COc1ccc(C2N(c3ccc4c(c3)OCCO4)C(=O)C2(F)F)cc1OC (configuration not stated) | 1.1 | -2.5% | / | 0.1% | -7.3% | 1.8%[15.4 µM] | -2.5

Arranged by value in D2 ag (low to high): some entries from above
SMILES | D2 ag
COc1ccc(C2N(c3ccc4c(c3)OCCO4)C(=O)C2(F)F)cc1OC (configuration not stated) | -2.5
O=C(CSc1ccc2nnc(-c3ccccc3)n2n1)N1CCCc2ccccc21 | -2.2
Cc1ccc(S(=O)(=O)N/N=C\c2cc3c(cc2[N+](=O)[O-])OCO3)cc1 | 6.9

Rows were taken by chance; about 5.1% have a hit in one of these screens.
